High-throughput results (PubChem BioAssay)
2A StopGo – High Throughput Screening for Foot and Mouth Disease Virus Antivirals. human cells with a luciferase reporter of 2A StopGo recoding; control for the full effect not named in the record. 410,000 tested, 1.2% active. Potency, µM (titrated, usually from 57.9 µM), without a hit: top-dose signal change, negative = less light; active = well fitted falling curve with a large enough effect; inconclusive = small, poorly fitted or top-dose-only effect; inactive = no such curve, though single readings can be large or run the other way; tested in HEK293T cells; also: % is scaled to controls: 0 for no effect and ±100 for the full control effect; nearly all actives have a fitted effect of over 45% in size; luciferase light after 4 h
NS1 function inh – qHTS Assay for Inhibitors of Influenza NS1 Protein Function | S. cerevisiae slowed by influenza A NS1, growth recovery by OD600 | Potency, µM (highest dose often 46.1 µM), inactives show top-dose activity, positive = more growth | 270,000 tested, 0.4% active; active means well fitted rising curve with a large enough effect; inconclusive means small, poorly fitted or top-dose-only effect; inactive means no such curve, though single readings can be large or run the other way; also: nearly all actives have a fitted effect of over 50% in size
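OD600 was taken as the measure of yeast growth restored by compound in an NS1-expressing S. cerevisiae strain. Cells had been washed out of glucose medium and diluted 1:100 into galactose -URA medium, pH 6.0.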
Marburg entry inh – qHTS for inhibitors of binding or entry into cells for Marburg Virus; 300,000 tested, 1.8% active; AID 540276, 2011; Marburg virus pseudotyped entry inhibition, cell reporter; control for the full effect not named in the record; about a third of the inactives were read at about 46 µM; Potency, µM (top dose mostly 37.8 µM), for the others: at the highest dose activity change, negative = inhibition, hits mostly inhibitors; active = well fitted inhibition curve with a large enough effect; inconclusive = small, poorly fitted or top-dose-only effect, or effect the other way; inactive = flat fitted curve, though single readings scatter; tested in HEK293 cells; about a fifth of its hits are not listed in these tables; also: % is scaled to controls: 0 for no effect and ±100 for the full control effect; luciferase read-out
Cruzain noTriton – qHTS Assay for Promiscuous and Specific Inhibitors of Cruzain (without detergent) | 200,000 tested, 2.3% active | purified cruzain, Z-FR-AMC fluorescence, no detergent | Potency, µM, inactives show max response, negative = inhibition, usual class: inhibitors | Cruzipain (Trypanosoma cruzi), P25779;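 also: plate controls were enzyme without inhibitor for no effect and buffer without enzyme for full effect; nearly all actives have a fitted effect of over 40% in size; top concentration of the series not given in the record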
Target sequence (P25779 123-467 limits assumed): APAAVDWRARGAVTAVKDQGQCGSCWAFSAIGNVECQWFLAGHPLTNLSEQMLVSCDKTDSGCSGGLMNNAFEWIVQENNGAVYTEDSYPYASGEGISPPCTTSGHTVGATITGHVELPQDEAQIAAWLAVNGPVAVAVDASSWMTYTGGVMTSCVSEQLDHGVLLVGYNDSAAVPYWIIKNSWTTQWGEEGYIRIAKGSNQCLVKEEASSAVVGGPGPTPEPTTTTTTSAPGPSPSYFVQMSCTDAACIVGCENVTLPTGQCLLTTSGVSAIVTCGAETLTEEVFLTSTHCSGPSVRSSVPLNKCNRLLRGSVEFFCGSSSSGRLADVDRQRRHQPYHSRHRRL
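Purified cruzain at 1.5 nM, pre-incubated 15 min with compound at room temperature in 100 mM sodium acetate pH 5.5, 5 mM DTT, 0.00005% Triton X-100. Reaction started with 2 uM Z-FR-AMC; AMC fluorescence increase over 60 s gives rate.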
Cruzain inh Det – qHTS Assay for Promiscuous and Specific Inhibitors of Cruzain (with detergent); Potency, µM, inactives show max response, negative = inhibition, most hits filed as inhibitors; purified cruzain, Z-FR-AMC fluorescence, 0.01% Triton; AID 1478, 2009; Cruzipain (Trypanosoma cruzi), P25779; 200,000 tested, 0.43% active;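 also: plate controls were neutral wells for no effect and buffer without enzyme for full effect; nearly all actives have a fitted effect of over 40% in size; top concentration of the series not given in the record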
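Detergent-containing run (0.01% Triton X-100) in acetate buffer pH 5.5 with 5 mM DTT: enzyme at 1.5 nM final, 15 min compound preincubation at room temperature, then 2 uM Z-FR-AMC substrate. Activity taken as 60 s fluorescence increase at 360/450 nm.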
SARS PLP yeast – qHTS of Yeast-based Assay for SARS-CoV PLP; 330,000 tested, 0.19% active; Potency, µM (doses to about 32.9 µM), for the others: at the highest dose activity, positive = growth rescue; S. cerevisiae expressing SARS-CoV PLpro, growth rescue; control for the full effect not named in the record; AID 485353, 2010; active means well fitted rising curve with a large enough effect; inconclusive means small, poorly fitted or top-dose-only effect; inactive means no such curve, though single readings can be large or run the other way; also: 0% is about no effect; nearly all actives have a fitted effect of over 55% in size; growth read by luminescence after 48 h
Lassa entry inh – qHTS for Inhibitors of binding or entry into cells for Lassa Virus | Lassa virus pseudotype entry inhibition, cell reporter; control for the full effect not named in the record | Potency, µM (top dose mostly 37.9 µM), for inactives: at the top dose activity change, negative = inhibition, most hits filed as inhibitors | 300,000 tested, 1.2% active; active means well fitted inhibition curve with a large enough effect; inconclusive means small, poorly fitted or top-dose-only effect, or effect the other way; inactive means flat fitted curve, though single readings scatter; tested in HEK293 cells; also: % is scaled to controls: 0 for no effect and ±100 for the full control effect; nearly all actives have a fitted effect of over 50% in size; luciferase read-out
RE007 growth inh – qHTS Assay for Inhibitors of the HIV-1 protein Vpr | AID 651644, 2012 | 360,000 tested, 0.21% active | Potency, µM (series often up to 92.2 µM), without a hit: at the top dose activity change, negative = less growth | S. pombe RE007 Vpr strain, BacTiter-Glo ATP luminescence, 24 h; control for the full effect not named in the record; active = well fitted falling curve with a large enough effect; inconclusive = small, poorly fitted or top-dose-only effect; inactive = no such curve, though single readings can be large or run the other way;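 also: % is scaled to controls: 0 for no effect and ±100 for the full control effect; nearly all actives have a fitted effect of over 50% in size; the assay follows cell death caused by Vpr and the record does not say whether a fall means rescue or toxicity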
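Fission yeast strain RE007, carrying one chromosomally integrated HIV-1 vpr copy, was seeded at OD 0.01 in PMG+AL medium with 23 nL pinned compound. After 24 h at 30 °C and 99% humidity, viability was read by BacTiter-Glo luminescence.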
Starred values were filed as active, the others as inactive; ? = inconclusive; . = not tested or not shown; & = joins results of further samples; [ ] = dose if it differs, or a comment. Unless noted, calls follow the shape of the dose curve; as a rule, active = well fitted curve in the direction sought with a large enough effect; inconclusive = small, poorly fitted or top-dose-only effect, or another doubt; inactive = no such curve, though single readings can be large; an effect the other way counts as inactive or inconclusive. Potency is read from the fitted curve at half-maximal effect.

SMILES | 2A StopGo | NS1 function inh | Marburg entry inh | Cruzain noTriton | Cruzain inh Det | SARS PLP yeast | Lassa entry inh | RE007 growth inh
COc1cccc(-c2nc(NC(C)C)c3ccccc3n2)c1O | ? | -135% | -29% | -16% | -2.9% | -22% | -10% | -27%
CC12CCC(C(=O)N(NC(=O)c3ccc(O)cc3)C1=O)C2(C)C (centres undefined) | . | -2% | 3% | 2% | 4.4% | 6% | 12% | 10%
COc1ccccc1-c1nc(C#N)c(N2CCN(c3cccc(Cl)c3)CC2)o1 | 19% | -94% | -28% | ? | 22µM* | 3% | -7% | -5%
Cc1ccc(S(=O)(=O)N2CCC(C(=O)NC3CC(C)(C)NC(C)(C)C3)CC2)cc1C | -10% | 0% | -8% | . | . | 2% | 0% | 0%
CCc1nnc(NC(=O)CCc2c[nH]c3ccccc23)s1 | -6% | 1% | ? | . | . | 0% | 5% | -8%
Cc1n[nH]c(=O)c2c(NC(=O)CSc3nc4ccccc4c(=O)n3CCCO)oc(C)c12 | -19% | -6% | -12%[46.1 µM] | . | . | -3% | -5% | -3%
CCCCOC(=O)c1ccc(NC(=O)C(=O)NCC2CCCO2)cc1 (centres undefined) | -11% | 5% | 11% | -30% | 2.4% | 4% | ? | 20%
Oc1ccccc1CNc1cnc2ccccc2c1 | -5% | -25% | ? | -11% | -9.7% | -4% | -26% | -4%
Cc1ccc(NC(=O)CN2C(=O)C(C)(C)c3ccccc32)cc1 | -11% | . | . | -11% | -1.5% | . | -5%[46.1 µM] | .
ClC1(Cl)CC1Cn1cnc2ccccc21 (centres undefined) | -6% | . | ? | . | . | 6% | -18%[46.1 µM] | 0%
CCc1ccc(NC(=O)C(NS(=O)(=O)c2cccc3nsnc23)c2ccccc2)cc1 (centres undefined) | 34%&32%[activator] | ? | 8%[46.1 µM] | -7%&2% | -5.0%&-2.2% | -13% | ? | 7%
Cc1cc(C)nc(CCNC(=O)C2CCC(=O)N(Cc3ccccc3F)C2)n1 (centres undefined) | 15% | 10% | . | . | . | -3% | . | 6%
COc1ccc(/C=C/C(O)=C2/C(=O)N(C)C3(C)CC2c2ccccc2O3)cc1 (centres undefined) | 14µM* | -10% | 8.2µM* | ? | 0.9% | -6% | ? | 8%
COc1ccccc1NS(=O)(=O)c1cc(NC(=O)CCc2nc3ccccc3c(=O)[nH]2)ccc1C | -27% | . | -26% | . | . | -1% | -5% | 5%
O=C(CN1CCN(c2ccccc2)CC1)Nc1cccc([N+](=O)[O-])c1 | -6% | . | 0%[46.1 µM] | . | . | 0% | ? | -13%
CS(=O)(=O)c1ccc(C(=O)Nc2ccccc2N2CCOCC2)c(Cl)c1 | 3% | . | 0%[46.1 µM] | . | . | 2% | 0% | -2%
CC1CCc2nc(/C(C#N)=C/c3ccncc3)sc2C1 (centres undefined) | 12% | . | 24%[46.1 µM] | . | . | 2% | 24% | -15%
CSc1ccc(CN2CCc3c([nH]c4ccccc34)C2)cc1 | -25% | -19% | -3% | . | . | -4% | ? | -24%
Cc1cccc(NC(=O)NCC(c2ccc(F)cc2)N2CCN(C)CC2)c1 (centres undefined) | 24% | 0% | . | . | . | -2% | . | 15%
CC(=O)N1c2ccc3ccccc3c2C(C)CC12CCCCC2 (centres undefined) | -18% | -49% | -7% | 0% | -2.1% | -21% | 1% | 0%
COc1ccc(C2C(C(N)=O)=C(C)Nc3nc(CCCO)nn32)c(OC)c1 (centres undefined) | -10% | . | -11%[46.1 µM] | 12% | -1.6% | . | 3%[46.1 µM] | .
COc1ccc(OC)c(NCc2nnc(-c3ccccc3)o2)c1 | -21% | 30% | 28%[46.1 µM] | . | . | 2% | 9%[46.1 µM] | 9%
CCCN1C(=O)/C(=C/c2ccc(OCc3ccc(C(=O)O)cc3)c(OC)c2)NC1=S | -38% | . | 15%[46.1 µM] | . | . | . | ? | 8%
c1ccc(CCNc2ncnc3ccccc23)cc1 | -42% | -9% | . | . | . | -2% | . | 4%
O=C(CCNS(=O)(=O)c1ccccc1C(F)(F)F)NNC(=O)c1csc(N2CCOCC2)n1 | -10% | . | 8%[46.1 µM] | . | . | -21% | 1% | -3%

Going on with the list.
SMILES | 2A StopGo | NS1 function inh | Marburg entry inh | Cruzain noTriton | Cruzain inh Det | SARS PLP yeast | Lassa entry inh | RE007 growth inh
CSCCC(NC(=O)c1cccc([N+](=O)[O-])c1)c1nc2ccccc2[nH]1 (centres undefined) | -24% | -19% | 9% | ? | -27% | -8% | 6% | 5%
CCC1Sc2ccc(S(=O)(=O)CCC(=O)Nc3ccc(NC(C)=O)cc3)cc2NC1=O (centres undefined) | -6% | 4% | ? | . | . | -1% | 9%[46.1 µM] | 6%
COc1cc(CNC(=O)c2nc(Cn3nc(C)c(Br)c3C)no2)cc(OC)c1 | -9% | . | ? | . | . | 2% | -18%[46.1 µM] | 11%
CC1CN(C(=O)CN2C(=O)NC3(CCCCCCC3)C2=O)CC(C)O1 (centres undefined) | 24% | ? | ? | -1% | 1.3% | 1% | -4% | 3%
COc1cc(OC)c2c(C)cc(=O)oc2c1 | -24% | -9% | 3% | ? | 68%[activator] | -3% | 8% | -9%
C[C@H](NC(=O)C1CCN(S(=O)(=O)c2ccccc2)CC1)C(=O)NCc1cccc(C(F)(F)F)c1 | -22% | 2% | 0%[46.1 µM] | . | . | -6% | 1%[46.1 µM] | -2%
O=C(NCc1nnc(SCC(=O)N2CCCCC2)o1)c1ccc(F)cc1 | 1% | 7% | 6% | . | . | -5% | 5% | -2%
COc1ccccc1NS(=O)(=O)c1ccc(O)c(C(N)=O)c1 | -6% | -7% | ? | 3% | 4.3% | 4% | 11% | 2%
COc1ccc(CC(=O)NNS(=O)(=O)c2ccc(F)cc2)cc1 | 4% | 10% | -1% | . | . | 0% | 4% | -30%
COc1ccc(N(C(=O)CNC(=O)c2cccs2)C(C(=O)NCC2CCCO2)c2ccccc2)cc1OC (centres undefined) | 1% | 4% | -7%[46.1 µM] | . | . | -1% | 12% | -5%
C#CCN1CCN(c2ccc(F)cc2)CC1 | -7% | 1% | 8%[46.1 µM] | . | . | 0% | 13%[46.1 µM] | -4%
Cn1c(C(=O)N2CCCC(C(=O)c3ccc(C(F)(F)F)cc3)C2)cc(=O)n(C)c1=O (centres undefined) | -7% | 5% | -32%[46.1 µM] | . | . | -1% | 1%[46.1 µM] | 9%
CSc1ccccc1NC(=O)CSCc1nc2sc(C)c(C)c2c(=O)[nH]1 | -26% | . | -3%[46.1 µM] | . | . | -4% | -18% | 2%
COc1ccc(C2CC(c3ccc(Cl)cc3)n3nc(N)nc3N2)cc1 (centres undefined) | -9% | 5% | . | -10% | 0.3% | -6% | . | -3%
N#Cc1c(N)n(CCc2ccc(F)cc2)c2nc3ccccc3nc12 | -23% | 1% | -18% | 4% | 8.9% | -4% | 1% | 10%
O=C(N/N=C/c1c[nH]c2ccccc12)c1cc(-c2cccc3ccccc23)n[nH]1 | -23% | 19% | ? | ? | -3.9% | -14% | -18%[46.1 µM] | 10%
O=C(OCC(=O)c1c[nH]c2ccccc12)c1ccc(Br)o1 | 53%[activator] | -10% | -1% | -19% | -10% | -3% | 4% | -14%
CC(C)(C)c1nnc(N/N=C/c2cc(Br)ccc2O)n(N)c1=O | 22µM* | -3% | ? | 1% | -13% | . | ? | ?
Cc1ccc(-n2nc3c(c2NC(=O)C(C)(C)C)CSC3)c(C)c1 | 6% | 0% | 4% | 6% | 0.1% | 0% | ? | 15%
O=C(CCCOc1ccc(Cl)cc1Cl)N1CCN(c2ccccn2)CC1 | -16% | -90% | 17% | ? | -5.5% | -4% | 12% | -28%
O=C(/C=C1\SC(=O)N(CC(=O)Nc2ccc(F)cc2)C1=O)Nc1ccc(Cl)cc1 | 23% | 5% | 6% | 25µM* | -0.9% | 6% | -2% | -9%
O=C(O)c1cc2cc(F)ccc2[nH]1 | -13%&7% | 2%&3%&-10% | ? | -3%&5%&-7% | 2.7%&-2.7%&3.3% | 2%&6% | ? | 4%[18.4 µM]
COc1ccc(N2CCN(C(=O)CSc3nnc4c5cc(C)ccc5n(C)c4n3)CC2)cc1 | . | 16% | 0% | ? | -1.7% | -6% | 9% | 0%
COc1ccc(-c2nnn(CCC(=O)O)n2)cc1 | -18% | -6% | 0% | 7% | 0.5% | 4% | -10% | -9%
COc1cc2c(cc1OC)C(c1cccc([N+](=O)[O-])c1)N(C(=O)c1ccccc1C(=O)O)CC2 (centres undefined) | -10% | 4% | -3%[46.1 µM] | . | . | -1% | 20% | -6%
O=C1C(=O)C(c2ccccc2)C(=O)C1c1ccccc1 (centres undefined) | 17% | . | 12%[46.1 µM] | . | . | . | 9%[46.1 µM] | -13%

As entered above.
COc1ccc(N2CCN(C(=O)CSc3nnc4c5cc(C)ccc5n(C)c4n3)CC2)cc1 | RE007 growth inh: 0%
CCC1Sc2ccc(S(=O)(=O)CCC(=O)Nc3ccc(NC(C)=O)cc3)cc2NC1=O (centres undefined) | 2A StopGo: -6%
O=C(/C=C1\SC(=O)N(CC(=O)Nc2ccc(F)cc2)C1=O)Nc1ccc(Cl)cc1 | RE007 growth inh: -9%
CSc1ccccc1NC(=O)CSCc1nc2sc(C)c(C)c2c(=O)[nH]1 | 2A StopGo: -26%
COc1cc(OC)c2c(C)cc(=O)oc2c1 | Marburg entry inh: 3%

Compound profiles, as listed above. Order of screens: 2A StopGo	NS1 function inh	Marburg entry inh	Cruzain noTriton	Cruzain inh Det	SARS PLP yeast	Lassa entry inh	RE007 growth inh
`CSc1ccccc1NC(=O)CSCc1nc2sc(C)c(C)c2c(=O)[nH]1` in the list: -26%	.	-3%[46.1 µM]	.	.	-4%	-18%	2%
`COc1ccccc1NS(=O)(=O)c1ccc(O)c(C(N)=O)c1` in the list: -6%	-7%	?	3%	4.3%	4%	11%	2%
